# CapD inh = CapD enzyme inhibition; z-score (no concentration beside the values); AID 492967; 140,000 tested, 0.23% active; purified CapD enzyme, fluorescence intensity read-out; stronger effect = lower value; some hits fall short of the stated cut;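 active means z-score under -4 in either of two replicates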;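 further: stock transfer was 100 nL into about 40 µL; score is relative to mean and spread of the plate; one replicate is shown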
# AID504770 = E. coli YBA685 growth inhibition, screen for V. cholerae RctB inhibitors; 130,000 tested, 0.27% active; z-score (concentration not given with the values); AID 504770; E. coli YBA685 rctB-dependent plasmid, OD600 growth, 3 h; stronger effect = lower value;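 active means z-score under -2 on both plates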;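 further: wells of about 30 µL received 100 nL stock; score is relative to mean and SD of the test wells; the first replicate is given; strong numbers were not always called active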
# Numbers without * were called inactive; x = not tested or not shown; & = joins results of further samples. These rows are one share of the data; count on the stated rates, not on these rows.
SMILES,CapD inh,AID504770
CCOC(=O)c1ccccc1NC(=O)c1ccc(-n2nc(C)cc2C)cc1,0.85,-0.45
COc1ccccc1C1C(C(=O)Nc2ccc(Br)cn2)=C(C)NC2=C1C(=O)CC(C)(C)C2 (centres undefined),0.66,x
O=C1OC(c2nn3c(-c4ccccc4)nnc3s2)Cc2ccccc21 (centres undefined),-0.12,-0.75
Cc1nc(-c2ccc(S(=O)(=O)N3CCCCCC3)s2)cs1,-0.31,0.2
CCn1c(NCc2ccccn2)nc2ccccc21,-0.67,-0.35
Cc1oc2ncn(C)c(=O)c2c1C(=O)N1CCCCC1,-0.035,0.65
CCSc1nnc(CNc2ccc(F)cc2)n1-c1ccc(C)cc1,x,-0.15
CCOC(=O)c1c(CN(CC)CC)oc2ccc(OC)cc12,1.4,-1.1
COc1ccc(-n2c(SCC(=O)Nc3cc(OC)ccc3OC)nc3n[nH]c(C)c3c2=N)cc1,-0.005,x
O=C(NC1CCCCC1)O/N=C/c1ccc(F)cc1,x,-0.55
CC1CC(C)CN(c2ncnc3c2cnn3-c2ccc(Cl)cc2)C1 (centres undefined),x,0.8
C#CC(CC)(CC)NC(=O)C1CC(C)=C(C)CC1C(=O)O (centres undefined),0.98,-0.6

# An excerpt from above in order of heavy-atom count, ascending.
SMILES,CapD inh,AID504770
Cc1oc2ncn(C)c(=O)c2c1C(=O)N1CCCCC1,-0.035,0.65
CCOC(=O)c1c(CN(CC)CC)oc2ccc(OC)cc12,1.4,-1.1
CC1CC(C)CN(c2ncnc3c2cnn3-c2ccc(Cl)cc2)C1 (centres undefined),x,0.8
CCOC(=O)c1ccccc1NC(=O)c1ccc(-n2nc(C)cc2C)cc1,0.85,-0.45
COc1ccc(-n2c(SCC(=O)Nc3cc(OC)ccc3OC)nc3n[nH]c(C)c3c2=N)cc1,-0.005,x

# Reformatted: results already given.
Compound | CapD inh | AID504770
COc1ccccc1C1C(C(=O)Nc2ccc(Br)cn2)=C(C)NC2=C1C(=O)CC(C)(C)C2 (centres undefined) | 0.66 | x
O=C1OC(c2nn3c(-c4ccccc4)nnc3s2)Cc2ccccc21 (centres undefined) | -0.12 | -0.75
Cc1nc(-c2ccc(S(=O)(=O)N3CCCCCC3)s2)cs1 | -0.31 | 0.2

# Remaining list, next part
SMILES,CapD inh,AID504770
CC(=O)C12c3ccccc3C(c3ccccc31)C1C(=O)N(c3cccc(C(=O)O)c3)C(=O)C12 (centres undefined),-0.19,x
CN(C)CCN1C(=O)c2oc3ccccc3c(=O)c2C1c1cccnc1 (centres undefined),-2.1,1.8
COc1ccc(NC(=O)C(C(=O)Nc2ccc(OC)cc2)C23CC4CC(CC(C4)C2)C3)cc1,-0.21,0.9
C=CCn1c(SCc2c(C)noc2C)nc2scc(-c3cccs3)c2c1=O,x,0.3
CCOC(=O)CNc1nnc(-c2ccccc2)c(-c2ccccc2)c1C#N,0.73,0.45
CC(=O)NCCN1C(=O)N(C)C2C1N(C)C(=O)N2C (centres undefined),-0.62,x
Cc1ccc(N(CC(=O)N2CCc3ccccc32)C2=NC(=O)CS2)cc1,x,-0.3
CCN(C(=O)c1cc2c(s1)-c1ccccc1S(=O)(=O)C2)c1ccc(F)cc1,-0.14,0.2
NC1=NC2(CS1)CSC(N)=N2,0.52,x
Cc1cc(Cl)n(-c2ccc(F)cc2)n1,x,1.6
CN(C)S(=O)(=O)c1ccc(C(=O)Nc2nc3ccccc3c3nc4ccccc4n23)cc1,-0.49,x
CCOP(=O)(OCC)C(Nc1ccccc1)c1cc(C(C)(C)C)c(O)c(C(C)(C)C)c1 (centres undefined),-0.83,x
O=C(Nc1ccccc1)c1cc2c3c(c1)C1C=CCC1CN3CC1CC=CC21 (centres undefined),11,x
c1ccn2c(SCc3ccc4c(c3)OCCO4)nnc2c1,-0.04,-0.9
O=c1c2cn[nH]c2[nH]c(=S)n1-c1cccc2ccccc12,-0.4,x
COc1[nH]c2ccccc2c1/C=N/O,-0.34,-0.85
NS(=O)(=O)c1ccc(NC(=O)CCCC(=O)O)cc1,-0.64,-0.2
COC(=O)[C@H](Cc1ccccc1)NC(=O)[C@@H](N)CC(=O)O,x,-0.25
CN1CCN(c2oc(-c3ccccc3F)nc2C#N)CC1,49,-1
CC(O)CNC(=O)c1cc(-c2ccccc2)nc2ccccc12 (centres undefined),-0.41,x
CCCN1C(=O)NC2(O)C(=O)c3ccccc3C12O (centres undefined),-0.29,x
Clc1nc(Nc2ccccc2)sc1/C=N/N1CCOCC1,x,-2.1
CC(C)c1nc2ccccc2n1Cc1ccccc1Cl,0.53,0.75
CN(Cc1nnc(-c2ccccc2)o1)C(=O)c1ccc(F)cc1,0.21,0.8
N=C=C1C(=O)c2ccccc2C1=O,-0.29,1.2
Cc1cc(C)nc(Sc2ccc(NC(=O)CSC(C)(C)C)cc2)n1,-0.59,x
OC(CNCc1cc2ccccc2s1)C(F)(F)F (centres undefined),0.43,0.3
CC(Sc1nc2ccccc2c(=O)n1C)C(=O)Nc1ccc2c(c1)OCCO2 (centres undefined),x,-0.5
C=CCn1c(SC(C)C(N)=O)nnc1-c1ccc(OC)cc1 (centres undefined),x,-0.25
COc1ccc(C2CC(=O)Nc3c2ccc2ccccc32)cc1OCc1ccccc1 (centres undefined),-0.53,x
CCCOC(=O)CSc1nc(N)c(C#N)c(-c2ccccc2Cl)c1C#N,22,x
CC1(C)CC(=O)c2sc(NC(=O)c3ccc(F)cc3)nc2C1,-0.21,0.3
CCN(CC)c1ccc(C=NNC(=O)Cn2nnc3ccccc32)c(O)c1,8,-0.4
COCCNC(=O)c1sc2ncnc(N3CCN(c4ccccc4OC)CC3)c2c1C,-0.62,x
Cc1cccc(CC(=O)N2CC(C)OC(C)C2)c1 (centres undefined),0.94,0.05
CC1CCCC(C)N1CC(=O)N1CCCc2c1c(=O)oc1ccc(OCc3ccccc3)cc21 (centres undefined),18,-0.8
Nc1c(S(=O)(=O)c2ccc(F)cc2)c2nc3ccccc3nc2n1Cc1cccs1,x,0.3
O=C(CCCOc1ccc(Cl)cc1Cl)NC1=NN(c2ccccc2)C(=O)C1,-0.85,x
CCS(=O)(=O)N1CCC(NC(=O)c2ccccc2Cl)CC1,x,-0.5
Cn1c(SCc2nc(N)nc(N3CCCc4ccccc43)n2)nnc1-c1ccccc1,x,-0.45
Cn1c(O)c(C=Nc2ccccc2)oc1=S,-0.21,1.7
COc1ccc(/C=C2\C(=O)NC(=O)N(c3ccccc3C)C2=O)c(OC)c1OC,0.25,x
CN(C(=O)CSc1nccc(=O)[nH]1)C1CCCCC1,x,-0.8
CCn1nc(C)cc1-c1nnc(SCC(=O)c2ccccc2)n1-c1ccccc1,-0.76,-1.2
Cn1cc(C(=O)OCc2cccc3ccccc23)cn1,x,-0.4
CSc1nc2nc3c(c(=O)n2[nH]1)CCCC3,x,1.2
COc1ccc(CN2CCN(c3ccc(F)cc3)CC2)c2ccccc12,0.38,0.6
CCC(Sc1nc2ccsc2c(=O)n1NC(=O)c1ccccc1)C(=O)Nc1cccc(C)c1 (centres undefined),0.21,-0.05
O=C(O)CCn1c(SCCOc2ccc(Cl)cc2)nc2ccccc21,-0.1,x
CCC12CN(C(=O)c3ccc(OC)cc3)CC(CC)(CN(C(=O)c3ccc(OC)cc3)C1)C2=O,0.035,-0.7
CCCCC1(CC(=O)Nc2ccc(F)cc2)C(=O)N(c2ccccc2)N(c2ccccc2)C1=O,-0.28,x
NS(=O)(=O)c1ccc(CCNC(=O)C(Sc2ccccc2)c2ccccc2)cc1 (centres undefined),0.18,-0.45
N#CC1=NN(c2ccccc2)C(c2ccccc2)CC1=O (centres undefined),-2.3,-0.6
CC(C)(C)c1ccc(/C=N/NC(=O)COc2ccccc2Cl)cc1,-0.12,x
CCOc1ccccc1C1C(C(=O)OC(C)C)=C(C)NC2=C1C(=O)CC(c1ccc(OC)c(OC)c1)C2 (centres undefined),2.8,x
CCN1CCN(CCNC(=O)c2ccc3c(c2)NC(=O)/C(=C\c2cccc(Cl)c2)S3)CC1,0.18,-0.45
COc1ccc(C2C(C(=O)N3CCOCC3)=C(C)NC3=C2C(=O)CCC3)cc1Br (centres undefined),57,0.05
Cc1ccc(N/N=C(\C#N)C(=O)NC2CC2)cc1C,x,0.55
CCC1(C)Cc2c(sc3c2c(=O)n(C)c2nnc(SCC(=O)c4ccccc4)n32)CO1 (centres undefined),-0.36,1.8
COc1ccccc1CNC(=O)COCC(=O)N1CCC(c2nc(-c3cccnc3)no2)CC1,-0.2,x

# New compounds follow:
SMILES,CapD inh,AID504770
Cc1nnsc1C(=O)ON=C(c1cccs1)c1cccs1,0.41,-0.3
O=C(NCc1ccccn1)/C(=C/c1cn(-c2ccccc2)nc1-c1ccc(Cl)cc1)NC(=O)c1ccc(Cl)cc1Cl,-0.39,x
Cc1nc(N2CCN(c3ccccn3)CC2)c2c(C)c(C(=O)Nc3ccc(F)cc3F)sc2n1,-1.2,x
COc1cccc(NC(=O)NCCSCc2ccco2)c1,-0.01,x
COc1cc(C2C(C#N)=C(N)Oc3n[nH]c(-c4cc(OC)c(OC)c(OC)c4)c32)ccc1O (centres undefined),-0.27,x
Cc1ccc(CNC(=O)CSc2nnc(N3C(=O)c4ccccc4C3=O)s2)cc1,-0.21,0.7
Cc1ccc(-c2csc(COC(=O)C(C)(C)C)n2)cc1,9.9,0.65
C=CCNC(=S)Nc1sc2c(c1C(=O)OCC)CCCCC2,-0.53,-0.45
O=C(NCCN1CCOCC1)c1cc2cccc3c2n(c1=O)CCC3,30,x
O=C(/C=C/c1ccc2c(c1)OCO2)N1CCN(c2n[nH]c(=O)[nH]c2=O)CC1,x,-0.5
COc1cc2c(cc1OC)C1=C(C#N)CC/C(=N\S(=O)(=O)c3ccccc3)N1CC2,-1.3,1.5
COC(=O)CNC(=O)c1ccc(OC)cc1,x,1.1

# A stretch from the list above:
SMILES,CapD inh,AID504770
COc1cccc(NC(=O)NCCSCc2ccco2)c1,-0.01,x
COc1cc(C2C(C#N)=C(N)Oc3n[nH]c(-c4cc(OC)c(OC)c(OC)c4)c32)ccc1O (centres undefined),-0.27,x
Cc1ccc(CNC(=O)CSc2nnc(N3C(=O)c4ccccc4C3=O)s2)cc1,-0.21,0.7
Cc1ccc(-c2csc(COC(=O)C(C)(C)C)n2)cc1,9.9,0.65
C=CCNC(=S)Nc1sc2c(c1C(=O)OCC)CCCCC2,-0.53,-0.45
O=C(NCCN1CCOCC1)c1cc2cccc3c2n(c1=O)CCC3,30,x
O=C(/C=C/c1ccc2c(c1)OCO2)N1CCN(c2n[nH]c(=O)[nH]c2=O)CC1,x,-0.5

# Additional entries
SMILES,CapD inh,AID504770
CCN1C(=Nc2ccc(O)cc2)SC/C1=C\C(=O)OC,x,1.1
Cc1ccn(-c2ccc(NC(=O)C3CC3)cc2)n1,x,-0.8
O=C(CS(=O)(=O)c1cccc(Cl)c1)Nc1ccc(Cl)cc1Cl,-0.54,x
COc1ccc(-n2c(C)cc(C(=O)COC(=O)c3nccnc3N)c2C)cc1,x,1.4
O=C(COC(=O)c1ccc(N2C(=O)c3ccccc3C2=O)cc1)c1ccccc1,-0.14,0.6
CCOc1ccc(NC2=NCCS2)cc1,-0.54&0.46,1.9&0.2
CC1(C)CC2CC(C)(CN2C(=O)COC(=O)c2ccc3c(c2)S(=O)(=O)N=C2CCCCCN23)C1 (centres undefined),x,-1.2
O=[N+]([O-])c1cccc2cnccc12,-1,x
COc1cc2nc(SCC#N)n3nc(CCn4c(C)nc5ccccc54)nc3c2cc1OC,-0.2,0.3
Clc1ccccc1CN1COc2cc3c(cc2C1)OCO3,0.33,-1.4
CC(O)CN(N)C1=NS(=O)(=O)c2ccccc21 (centres undefined),x,0.7
CC1=C(C#N)C(=O)NC(=O)/C1=C\c1ccc(-c2ccccc2)o1,1.6&-0.23,-0.7&-0.55
COc1cc(/C=C2/SC(=Nc3cccc(Cl)c3Cl)NC2=O)cc(OC)c1OC,-0.44,0.35
O=S(=O)(NCc1ccc(Cl)cc1)c1ccccc1,0.28,x
CCOC(=O)c1cc2cnccc2nc1C(F)(F)F,-0.23,x
O=C(COC(=O)C1(c2ccc(Cl)cc2)CCCC1)NC1CC1,-0.64,1.9
NCCNc1ncnc2scc(-c3ccccc3)c12,0.48,0.6
O=S(=O)(Nc1cc2c3c(oc2c2ccccc12)CCCC3)c1ccc2ccccc2c1,-0.24,x
CCOC(=O)c1ccc(NC(=S)N2CCN(C(=S)Nc3ccc(C(=O)OCC)cc3)CC2)cc1,0.56,x
S=C(NCCCn1ccnc1)Nc1cc(Cl)ccc1Cl,0.3,x
O=C(Nc1ccc(Cl)cc1)C(=S)N1CCOCC1,-0.43,-0.95
O=C(CC1(O)C(=O)N(Cc2ccccc2Cl)c2ccccc21)c1ccco1 (centres undefined),-0.14,x
Cc1ccc(-c2n[nH]c(=S)c3ccccc23)cc1S(=O)(=O)N1CCN(C)CC1,x,-1.1
CC1CN(c2ccccc2)C(=O)CS1 (centres undefined),-0.77,1.8
NNC(=O)CN1C(=O)C2(OCCO2)c2ccccc21,-0.4,x
O=C(O)c1ccccc1S(=O)(=O)CC(=O)N1CCCCC1,x,-0.05
O=C(c1ccccc1)c1ccc2nc(N3CCCC3)c3nncn3c2c1,0.43,-0.7
CC(Oc1ccccc1)C(=O)NC1CCSC1=O (centres undefined),-0.76,-0.15
COc1ccccc1OC(=O)c1ccc(SC)cc1OC,x,-0.45
COCCn1c(=S)[nH]c2ccccc2c1=O,-0.33,-0.8&1.5
O=C(CCNC(=O)c1ccco1)NC1CCCCCC1,x,-2.1
CN(Cc1ccco1)C(=O)/C=C/c1cn(Cc2ccccc2)nc1-c1ccccc1,x,-0.5
Cc1nn(-c2ccc(Cl)cc2)c2sc(C(=O)OCC(=O)N3CCNC3=O)cc12,x,0.75
Nc1ccccc1SC1CC(=O)N(c2ccc3c(c2)OCO3)C1=O (centres undefined),-0.2,0.1
Cc1cc(C)nc(NNC(=S)Nc2ccccc2C)n1,x,0.65
CCOc1ccc(N(C)C(=O)CCc2nnc3ccc(N4CCCC4)nn23)cc1,0.52,-1.1
CN(CC(N)=O)S(=O)(=O)c1ccc2ccccc2c1,0.69,0.7

# Screens deposited in PubChem by ICCB-Longwood Screening Facility, Harvard Medical School.
